High-throughput results deposited in PubChem by National Center for Advancing Translational Sciences (NCATS).
RE007 growth inh = less growth of the S. pombe RE007 Vpr strain; S. pombe RE007 Vpr strain, BacTiter-Glo ATP luminescence, 24 h; control for the full effect not named in the record; Potency, µM (highest dose often 92.2 µM), inactives show at the highest dose activity change, negative = less growth; 360,000 compounds, 0.21% hits; active = well fitted falling curve with a large enough effect; inconclusive = small, poorly fitted or top-dose-only effect; inactive = no such curve, though single readings can be large or run the other way;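 further: on the % scale 0 is the no-effect control and ±100 the full control effect; nearly all actives have a fitted effect of over 50% in size; the assay follows cell death caused by Vpr and the record does not say whether a fall means rescue or toxicity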
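Fission yeast strain RE007, carrying one chromosomally integrated HIV-1 vpr copy, was seeded at OD 0.01 in PMG+AL medium with 23 nL pinned compound. After 24 h at 30 °C and 99% humidity, viability was read by BacTiter-Glo luminescence.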
2A StopGo = lowers the luciferase signal of an FMDV 2A StopGo reporter; human cells with a luciferase reporter of 2A StopGo recoding; control for the full effect not named in the record; Potency, µM (series often up to 57.9 µM), without a hit: top-dose signal change, negative = less light; 410,000 compounds, 1.2% hits; active = well fitted falling curve with a large enough effect; inconclusive = small, poorly fitted or top-dose-only effect; inactive = no such curve, though single readings can be large or run the other way; tested in HEK293T cells; further: on the % scale 0 is the no-effect control and ±100 the full control effect; nearly all actives have a fitted effect of over 45% in size; luciferase light after 4 h
SARS PLpro yeast = blocks SARS-CoV papain-like protease in a yeast assay; S. cerevisiae expressing SARS-CoV PLpro, growth rescue; control for the full effect not named in the record; 330,000 compounds, 0.19% hits; Potency, µM (doses to about 32.9 µM), for the others: top-dose activity, positive = growth rescue; active means well fitted rising curve with a large enough effect; inconclusive means small, poorly fitted or top-dose-only effect; inactive means no such curve, though single readings can be large or run the other way; further: 0% is about no effect; nearly all actives have a fitted effect of over 55% in size; growth read by luminescence after 48 h
Starred values were filed as active, the others as inactive; ? = inconclusive; [ ] = dose if it differs, or a comment. Potency means the concentration at half of the fitted maximal effect. This is a subset. The share of hits here may be higher or lower than overall.

SMILES | RE007 growth inh | 2A StopGo | SARS PLpro yeast
COc1cc(NC(=O)CSc2nnc3ccccn23)cc(OC)c1 | 6% | -8% | -6%
O=C(COC(=O)/C=C/c1ccc(F)cc1)NCC1CCCO1 (configuration not stated) | -1% | -2% | 1%
O=S(=O)(c1ccccc1F)N1CCN(CCOc2ccccc2)CC1 | -4% | ? | 1%
CCCCCCC(NC(=O)c1ccc(C)cc1)C(=O)O (configuration not stated) | 9% | 0% | -8%
O=C(Nc1ccccc1)c1nc[nH]c1C(=O)NCCN(CCNC(=O)c1[nH]cnc1C(=O)Nc1ccccc1)CCNC(=O)c1[nH]cnc1C(=O)Nc1ccccc1 | 5% | -10% | 2%
CC(C)c1cccc(-c2ccc3c(c2)S(=O)(=O)c2cccc(C(=O)O)c2C3=O)c1 | 0% | -2% | -8%
CCOC(=O)C1=C(C)N(C[C@@H]2CC[C@@H](Cc3ccc(-c4ccccc4)cc3)O2)C(=O)NC1c1ccc(C(F)(F)F)cc1 (some centres not stated) | -9% | -25% | 14%
NC(=O)C1CCN(C(=O)c2ccc(NS(=O)(=O)c3ccc(F)c(F)c3)cc2)CC1 | -9% | -5% | -6%
CCOC(=O)C1=CN(Cc2cccc(F)c2)S(=O)(=O)N(C)C1c1cccc(OC)c1 (configuration not stated) | -1% | 23% | -15%
CSc1nc(-c2ccccc2)nc(NC(C)=O)c1C(C)=O | 8% | 0% | -1%
CCC(CO)Oc1cc(NC(=O)c2ccc(OC)cc2)c2ncn(C(C)C)c2c1 (configuration not stated) | -12% | -8% | 6%
COC(=O)[C@]1(Cc2ccccc2)N[C@H](c2ccc(-c3ccc(F)cc3)cc2)[C@@H]2C(=O)N(C)C(=O)[C@@H]21 | -19% | ? | -2%
CN(CC(=O)Nc1cccc(F)c1)CC(=O)Nc1cc(S(=O)(=O)N2CCOCC2)ccc1Cl | 2% | ? | -14%
C[C@]12c3[nH]c4ccccc4c3CCN1C(=O)C(CC(=O)NCCc1ccccn1)C[C@@H]2C(=O)N1CCCCC1 (some centres not stated) | -8% | -14% | 1%
COc1ccc(-c2ccc3c(c2)S(=O)(=O)c2cccc(C(=O)O)c2C3=O)cc1OC | -4% | -12% | 2%
C=CC[C@H](CC(=O)NCCO)C(=O)N[C@H](C)COC(=O)[C@@H](CC=C)Cc1ccc(F)cc1 | 2% | -27% | 2%
Cc1ccc(S(=O)(=O)c2cc(Nc3ccccc3)ccc2O)cc1 | 14% | 63%[activator] | -4%
O=C(Cc1c(F)cccc1Cl)NNC(=O)c1ccccc1Cl | 18% | -18% | 0%
CC(C)C(NS(=O)(=O)c1cccs1)C(=O)N1CCC(C(N)=O)CC1 (configuration not stated) | -6% | -6% | 0%
C=CCn1c(C)cc(C(=O)COc2ccc(N(C)S(=O)(=O)c3ccc(NC(C)=O)cc3)cc2)c1C | -1% | ? | -1%
Cc1ccc(-n2c(=O)cc(N3CC(C)OC(C)C3)[nH]c2=O)cc1 (configuration not stated) | 13% | 25% | 4%
O=S(=O)(c1ccc(SCCOc2ccc(Cl)cc2)nc1)N1CCCC1 | 9% | ? | -1%
CCCCn1c(N)c(N(CCOC)C(=O)C2CC(=O)N(c3ccc(CC)cc3)C2)c(=O)[nH]c1=O (configuration not stated) | 7% | -7% | 1%
Fc1ccc2cc(-c3ccccc3)ncc2c1 | -18% | 45%[activator] | 4%
COCC(C)NC(=O)CSc1nc2cc(S(=O)(=O)N3CCCCC3)ccc2o1 (configuration not stated) | -11% | -12% | -2%
C=CC[C@@H](CC(=O)N[C@@H](CO)Cc1ccccc1)C(=O)NC[C@H](OC(=O)[C@@H](CC=C)Cc1ccc(F)cc1)c1ccccc1 | -6% | ? | -9%
Cc1cc(C)n(CCCNC(=O)COc2ccc([N+](=O)[O-])cc2)n1 | 1% | 6% | -3%
O=C(O)/C=C/C(=O)c1ccc2c(c1)CCc1ccccc1-2 | ? | ? | -1%
COc1ccc([C@@H]2CC=C(C(=O)O)[C@H](c3ccccc3)N2S(=O)(=O)c2ccccc2C)cc1 | -1% | 42%[activator] | -20%
Cc1ccnc2nc(C(=O)OCC(=O)c3ccc(Cl)cc3)nn12 | -2% | 7% | -14%
O=C(Nc1ccc(Cl)c(S(=O)(=O)N2CCOCC2)c1)C1CCC1 | -8% | -20% | -3%
O=C(COC(=O)c1ccc(OC(F)F)cc1)Nc1cccc(S(=O)(=O)NC2=NCCC2)c1 | 4% | 20% | 1%
COc1ccccc1NC(=O)COC(=O)C1CC(=O)N(c2ccc3c(c2)OCCO3)C1 (configuration not stated) | -9% | -16% | -1%
COc1ccc([C@H]2CC(=O)C=C(c3cccc(Cl)c3)C2)cc1 | 15% | -1% | -1%
Cc1ccc(Cl)cc1NC(=O)Cn1c(C)csc1=O | 14% | 1% | -8%
Cc1[nH]nc(SCC(=O)NCC(C)C)c1[N+](=O)[O-] | 8% | 17% | 0%
Cc1ccc(OCC(=O)c2c(N)n(C)c(=O)n(C)c2=O)c([N+](=O)[O-])n1 | -2% | -10% | 7%
CCOC(=O)c1c(NC(=O)C(C)OC(=O)C2=COCCO2)sc2c1CCCC2 (configuration not stated) | -11% | -27% | -14%
COc1ccc(NC(=O)COc2cccc3c2OC(C)(C)C3)cc1OC | 2% | 22µM* | -20%
Cc1ccc(NC(=O)CN(C)C(=O)COC(=O)c2nc3nccc(C)n3n2)cc1 | 0% | -3% | 4%

Entries of single compounds from above. Order of screens: RE007 growth inh, 2A StopGo, SARS PLpro yeast
Cc1ccnc2nc(C(=O)OCC(=O)c3ccc(Cl)cc3)nn12 as listed: -2%, 7%, -14%
Cc1ccc(NC(=O)CN(C)C(=O)COC(=O)c2nc3nccc(C)n3n2)cc1 as listed: 0%, -3%, 4%
CCOC(=O)c1c(NC(=O)C(C)OC(=O)C2=COCCO2)sc2c1CCCC2 (configuration not stated) as listed: -11%, -27%, -14%
COc1ccc([C@@H]2CC=C(C(=O)O)[C@H](c3ccccc3)N2S(=O)(=O)c2ccccc2C)cc1 as listed: -1%, 42%[activator], -20%
Cc1[nH]nc(SCC(=O)NCC(C)C)c1[N+](=O)[O-] as listed: 8%, 17%, 0%

Remaining list, next part:
SMILES | RE007 growth inh | 2A StopGo | SARS PLpro yeast
COCCNC(=O)c1cc(-c2ccccc2)n(Cc2cc(C)no2)n1 | 1% | -6% | -3%
C=C(C)C(Cc1c(OC)ccc(C(=O)/C=C/c2ccc(O)cc2)c1O)OO (configuration not stated) | 8% | 3% | -6%
CC1CCCCC1NC(=O)COC(=O)c1ccc2c(c1)OCCO2 (configuration not stated) | -12% | -17% | -5%
O=C(CSc1nn(-c2ccccc2)c(=S)s1)Nc1ncccn1 | 4% | -1% | -3%
O=C(O)CCCC(=O)OCc1c(-c2ccccc2)ncc2ccccc12 | -8% | -25% | -3%
COc1cc(/C=C/C(=O)c2ccc([N+](=O)[O-])o2)ccc1O | 13µM* | ? | 1%
C[C@H]1COC(=O)CCCC/C=C\C[C@H](CC(=O)N(CCO)Cc2ccccc2)C(=O)N1 | 12% | -14% | 1%
COc1ccc(C(=O)NNC(=O)C23CC4CC(CC(C4)C2)C3)cc1OC | 0% | -11% | -5%
CC(C)C[C@H]1CN=C(N(C)C)N1CCc1cccc(F)c1 | 0% | 4% | 1%
COc1ccc(C(=O)NNC(=O)c2cc(C)nc3ccccc23)cc1 | 1% | -7% | -7%
O=S(=O)(c1ccc(=S)[nH]c1)N1CCCCCC1 | 10% | -8% | 6%
CCOc1ccc(C(=O)NCC(=O)Nc2cc(C)ccn2)cc1OCC | 6% | 17% | -2%[6.58 µM]
O=C(CCNC(=O)c1ccco1)NCc1ccc(F)cc1 | 38% | -1% | -1%
C#CCOCCOCCOCCNc1nc(N2CCN(C(=O)[C@H](CCCCN)n3cc(CN)nn3)CC2)nc(N2CCN(C(=O)[C@H](CCCCN)n3cc([C@@H](N)[C@H](C)CC)nn3)CC2)n1 | -6% | -16% | -7%
Cc1ccc(S(=O)(=O)NCC(=O)OCC(=O)NC(=O)NC2CCCC2)cc1 | -1% | -7% | 4%
COc1ccc(CCNC(=O)CN2C(=O)NC3(CCc4ccccc43)C2=O)cc1 (configuration not stated) | -22% | -12% | 1%
CC(NC(=O)COC(=O)Cn1cc(C(F)(F)F)ccc1=O)c1ccccc1 (configuration not stated) | -7% | -6% | -10%
C/C(CC(=O)Nc1ccccc1)=N\NC(=O)COc1ccc(C)cc1Br | 1% | -1% | 3%
Cc1ccc(/C=C/S(=O)(=O)NCCC(=O)NCc2ccc(F)cc2)cc1 | -3% | 26% | 6%
O=C(NNc1c(F)c(F)cc(F)c1F)c1ccco1 | 5% | -15% | 5%
CC(O)[C@H]1CNCCN1CC1(c2ccccc2)CC1 (some centres not stated) | -14% | -8% | 4%
O=C(c1nc[nH]c1C(=O)N1CCN(c2ccccc2)CC1)N1CCN(c2ccccc2)CC1 | 14% | -24% | -4%
O=C(CN1C(=O)NC2(CCCCC2)C1=O)N1CCN(S(=O)(=O)c2ccc(Cl)s2)CC1 | -1% | -22% | -4%
O=C1CCCC/C=C\C[C@H](CC(=O)N(CCO)Cc2ccccc2)C(=O)NCCO1 | -5% | -2% | 1%
CCC(c1ccc(C)cc1)N1C(=O)C2C3CCC(O3)C2C1=O (configuration not stated) | 8% | -13% | 5%
Cc1ccc(S(=O)(=O)N2CCN(S(=O)(=O)c3ccccc3Br)C2=O)cc1 | -1% | 44%[activator] | ?
O=C(COC(=O)c1cc(S(=O)(=O)N2CCOCC2)c(Cl)cc1Cl)c1ccc[nH]1 | 4% | 0% | -2%
COc1ccccc1C(=O)NCC(=O)Nc1ccc2c(c1)CCC2 | -3% | 31%[activator] | 2%
CCCCCn1nc(C(=O)N2CCc3ccccc32)c2ccccc2c1=O | 5% | 3% | -15%
COc1ccc2cc(C(C)C(=O)OC(C)C)ccc2c1 (configuration not stated) | -6% | 10% | 1%
C[N+]1(CC(O)COCC2COc3ccccc3O2)CCOCC1 (configuration not stated) | -5% | -17% | 2%
COc1ccc(C2CC(c3ccccc3C(F)(F)F)=NN2c2ccc(S(N)(=O)=O)cc2)cc1 (configuration not stated) | 2% | ? | -16%
O=c1c2ccccc2sn1-c1ccc(F)cc1 | 5.6µM* | 0% | 3%
CC(C)NC(=O)Nc1cccc2c1O[C@@H](CN(C)S(=O)(=O)c1ccc(F)cc1)[C@@H](C)CN([C@H](C)CO)C2=O | -5% | 29% | 14%
CN(C)c1ccc(-c2ccc3oc(-c4ccsc4)cc(=O)c3c2)cn1 | -11% | 33%[activator] | 0%
Cn1nc(C(=O)NCC(=O)Nc2ccc(F)c(F)c2F)c2ccccc2c1=O | 3% | 3% | -7%
CC(Oc1ccc2c(-c3ccccc3)cc(=O)oc2c1)C(=O)N1CCOCC1 (configuration not stated) | -9% | -6% | -3%
C/C(=N\O)c1sc(-c2ccccc2)nc1C | -11% | 62%[activator] | -7%
CCOc1ncccc1C(=O)NCc1ccccc1Cl | 2% | 1% | 1%
CC1CN(C(=O)CSc2nc(N)cc(N)n2)CC(C)O1 (configuration not stated) | 7% | 8% | -9%
O=C(Oc1cccc([N+](=O)[O-])c1)N1CCCCC1 | -22% | 16% | -1%
O=C(c1cc(S(=O)(=O)N2CCOCC2)ccc1F)N1CCc2ccccc21 | 5% | 0% | 1%
C=CCN(CC=C)Cc1nc(N)nc(Nc2ccccc2C)n1 | -11% | -4% | 1%
O=S(=O)(NCC(c1ccco1)N1CCCCC1)c1ccccc1C(F)(F)F (configuration not stated) | -17% | -21% | 1%
O=C(Cn1cc(C(F)(F)F)cc(Cl)c1=O)NCC1COc2ccccc2O1 (configuration not stated) | 7% | -10% | -1%
Cc1ccc(NC(=O)Cn2c(=O)cnc3ccccc32)cc1S(=O)(=O)N1CCOCC1 | -3% | -17% | 1%
CN(CC(=O)Nc1ccccc1C(=O)NC1CC1)Cc1cccs1 | -14% | -15% | -3%
N#CC(Cc1cc2ccccc2n1S(=O)(=O)c1ccccc1)OCc1ccccc1 (configuration not stated) | -13% | 39%[activator] | -4%
O=C(Cc1ccccc1[N+](=O)[O-])NNC(=O)c1cccs1 | -9% | 6% | 10%
O=C(COC(=O)Cc1n[nH]c(=O)c2ccccc12)Nc1ccc(Cl)cc1F | 7% | -5% | 0%
COc1ccc2c(CC(=O)OCC(=O)Nc3cccc(C)c3)coc2c1 | -8% | -8% | -6%

Single entries from the list.
Under 2A StopGo, COc1ccc2c(CC(=O)OCC(=O)Nc3cccc(C)c3)coc2c1 is entered as -8%
Under SARS PLpro yeast, Cc1ccc(NC(=O)CN(C)C(=O)COC(=O)c2nc3nccc(C)n3n2)cc1 is entered as 4%
Under 2A StopGo, COc1ccc([C@H]2CC(=O)C=C(c3cccc(Cl)c3)C2)cc1 is entered as -1%
Under RE007 growth inh, COc1ccc(NC(=O)COc2cccc3c2OC(C)(C)C3)cc1OC is entered as 2%
Under RE007 growth inh, Cc1ccnc2nc(C(=O)OCC(=O)c3ccc(Cl)cc3)nn12 is entered as -2%
